Compound activity as filed in PubChem BioAssay.
CtBP-E1A inh = CtBP/E1A binding inhibition | AlphaScreen GST-E1A/His-CtBP binding, 1536-well; active compounds read low; control for the full effect not named in the record | activity change, % (test concentration not listed) | hit rate 0.49% among 340,000 | AID 651724; in the data active means activity change below about -65%; inconclusive means about -30% to -65%; inactive means above about -30%; also: % is scaled to controls: 0 for no effect and ±100 for the full control effect
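GST-E1A and His-tagged CtBP (125 nM each as 5X stock) were preincubated with pin-transferred compound for 2 h at 37 °C in the dark, then glutathione donor and nickel acceptor beads were added for 1 h before AlphaScreen reading.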
D2 potentiator = human D2 receptor positive allosteric modulation; DiscoveRx D2 beta-arrestin cells, luminescence, 90 min; 100% = 57 uM dopamine signal; potentiation, % (no concentration beside the values); hit rate 0.23% among 360,000; active = potentiation of 50% or more; inconclusive = 30% to 50%; inactive = 30% or less;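 also: compound concentration not given in the record; tested on top of an EC20 dose of dopamine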
Target sequence (P14416 whole entry, looked up): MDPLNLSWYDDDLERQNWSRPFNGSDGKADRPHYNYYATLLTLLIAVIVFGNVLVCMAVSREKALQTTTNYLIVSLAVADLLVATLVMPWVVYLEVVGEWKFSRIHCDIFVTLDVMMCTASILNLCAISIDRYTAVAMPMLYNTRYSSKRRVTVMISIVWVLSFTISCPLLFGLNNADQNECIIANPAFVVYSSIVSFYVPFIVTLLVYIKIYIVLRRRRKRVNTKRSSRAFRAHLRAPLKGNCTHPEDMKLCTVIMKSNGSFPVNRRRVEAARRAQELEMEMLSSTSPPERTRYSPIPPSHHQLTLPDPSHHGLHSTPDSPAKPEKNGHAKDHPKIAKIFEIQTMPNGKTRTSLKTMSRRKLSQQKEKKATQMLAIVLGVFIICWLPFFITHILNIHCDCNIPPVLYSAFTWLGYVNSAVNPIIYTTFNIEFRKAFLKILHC
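PathHunter beta-arrestin assay in DiscoveRx D2 cells. Compounds were added with an EC20 of dopamine (50 nM final) for 90 min at 37 deg C. Luminescence was read 1 h after detection reagent, with 57 uM dopamine as the EC100 control.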
PINK1 modulator = changes PINK1 expression; PINK1 immunofluorescence, high-content cytometry, 24 h; Potency, µM (top dose mostly 76.6 µM), without a hit: top-dose activation (PINK1 increase), actives largely listed as activators; hit rate 0.2% among 410,000; AID 624263; active = well fitted activation curve with a large enough effect; inconclusive = small, poorly fitted or top-dose-only effect; inactive = flat fitted curve, though single readings scatter; cell line not stated here;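 also: potency is read from the fitted curve at half-maximal effect; % of control where 0% means no effect; nearly all actives have a fitted effect of over 65% in size; a mitochondrial uncoupler was the plate control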
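Measures PINK1 amount and localization on or inside mitochondria by immunofluorescence. Stable cells get compounds at 5 concentrations for 24 hours before fixation and staining; CCCP controls included.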
Six1-Eya2 inh = inhibitors of human Six1/Eya2 interaction | AlphaScreen GST-Six1/His-Eya2 binding, biochemical; active compounds read low; control for the full effect not named in the record | activity change, % (test concentration not listed) | hit rate 0.56% among 360,000; in the data active = activity change below about -65%; inconclusive = about -30% to -65%; inactive = above about -30%; also: % is scaled to controls: 0 for no effect and ±100 for the full control effect
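Homogeneous AlphaScreen proximity assay pairing GST-Six1 with His-tagged Eya2 (added as 5X mix: 250 nM and 500 nM) in 50 mM Tris pH 8.0, 300 mM NaCl, 1 mM TCEP. Glutathione donor and nickel acceptor beads; 1 h, 37 °C, dark.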
D2 agonist = human D2 receptor agonism in beta-arrestin assay | P14416 | DiscoveRx PathHunter D2 beta-arrestin, luminescence, 90 min; 100% = 57 uM dopamine signal | activation, % (test concentration not listed) | hit rate 0.084% among 360,000 | AID 624465; in the data active = activation above about 40%; inconclusive = about 15% to 40%; inactive = below about 15%; also: compound concentration not given in the record; the text of the record calls up to 30% inactive
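Agonist mode: compounds alone added to overnight-plated D2 PathHunter cells for 90 min at 37 C, with 57 uM final dopamine (EC100) defining full response. Beta-arrestin recruitment detected by chemiluminescent reagent, read after 1 h at ambient temperature.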
TRPML1 agonist = human mucolipin-1 channel agonism; TRPML1-expressing cells, Ca2+ dye fluorescence, FDSS; host cell line not named in the record; reference of the full effect not given here; activation, % (concentration not given with the values); hit rate 0.12% among 410,000; AID 624414; in the data active = activation above about 50%; inconclusive = about 30% to 50%; inactive = below about 30%; also: 0% is about no effect; the text of the record puts the active cut at 80%
Target sequence (Q9GZU1 whole entry, looked up): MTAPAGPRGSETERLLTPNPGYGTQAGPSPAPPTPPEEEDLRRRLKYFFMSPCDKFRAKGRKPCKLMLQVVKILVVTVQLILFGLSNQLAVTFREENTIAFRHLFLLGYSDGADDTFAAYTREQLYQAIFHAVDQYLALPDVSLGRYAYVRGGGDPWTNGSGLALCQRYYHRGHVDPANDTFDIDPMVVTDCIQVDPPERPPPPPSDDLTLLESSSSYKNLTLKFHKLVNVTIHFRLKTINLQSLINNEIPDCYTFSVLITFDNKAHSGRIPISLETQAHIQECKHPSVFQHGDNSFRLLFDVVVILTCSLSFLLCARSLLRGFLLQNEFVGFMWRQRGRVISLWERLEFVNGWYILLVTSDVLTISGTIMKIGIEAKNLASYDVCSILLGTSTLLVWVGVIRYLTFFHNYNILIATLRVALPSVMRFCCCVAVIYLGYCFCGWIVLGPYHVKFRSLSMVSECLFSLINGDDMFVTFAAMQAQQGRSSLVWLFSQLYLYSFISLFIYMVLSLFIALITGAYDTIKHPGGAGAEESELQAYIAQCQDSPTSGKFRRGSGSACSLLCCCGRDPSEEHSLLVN
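Agonist activity was taken from a 110 s kinetic Ca2+ dye read on the FDSS after pinning compounds onto TRPML1-DL cells. The cells were seeded at 1,500/well with Tet inducer, incubated about 16 h, then dye-loaded at room temperature.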
The depositor's hits bear a star; ? = inconclusive; · = not tested or not shown; & = joins results of further samples; [ ] = another dose, or the depositor's remark.

SMILES	CtBP-E1A inh	D2 potentiator	PINK1 modulator	Six1-Eya2 inh	D2 agonist	TRPML1 agonist
COc1ccc2c(c1)c(=O)oc1cc(OCC(=O)N3CCC(C)CC3)ccc12	?	-5.0	7.1%[38.3 µM]	?	-2.8	-1.0
O=C1COc2ccc(C(=O)CSc3nc4ccccc4c(=O)n3-c3ccc(Cl)c(Cl)c3)cc2N1	-9.3	-8.6	-2.1%	15.2	-1.2	-0.1
Cn1nccc1CNC(=O)c1ccnn1C	11.7	-18.4	1.9%	7.6	-1.8	0.0
Cc1[nH]nc2c1C(=O)CCC2	6.5	-7.7	0.8%	0.0	-4.7	-0.3
Cc1ccc(C(=O)Oc2ccc(/C=C3\C(=N)N4N=C(N5CCOCC5)SC4=NC3=O)cc2)cc1	?	-1.5	3.7%	-88.3*	3.3	1.5
Cc1cc(CNC(=O)C2(C(F)(F)F)CC(CCCO)CCCO2)nn1C (stereo not given)	2.1	-4.9	0.9%	-6.8	-2.6	-0.3&0.5
N#C/C(=C\c1cc2c(cc1Br)OCO2)C(=O)NCC1CCCO1 (stereo not given)	-6.8	-1.9	8.5%	10.9	-0.7	0.3
NNC(=S)NCc1ccccc1	3.0	-1.5	-2.3%	0.5	-2.6	0.3
CC(C)n1nc(C(=O)OCC(=O)NCCc2ccc(S(N)(=O)=O)cc2)c2ccccc2c1=O	9.5	2.8	-0.8%	0.0	10.3	1.2
C1CCN(c2nc(N3CCCCC3)nc(N3CCNCC3)n2)CC1	2.8	1.8	-0.3%	-2.1	0.2	-0.7
COc1cccc(/C=N/NC(=O)c2[nH]nc3c2CCc2ccccc2-3)c1	-10.8	4.6	-1.0%	-5.7	6.4	-0.1
O=C1NC(=O)C2(CCCCCC2)N1	4.4	-5.3	1.9%	3.1	-4.3	-0.4
CCc1nc(C)ccc1OC(=O)C12CC3CC(CC(C3)C1)C2	10.4	7.6	?	4.5	0.1	0.0
CCN(CC)C(=O)Cn1cc(C(=O)C2CC2)c2ccccc21	0.1	0.2	1.3%	4.1	-3.0	0.4
CN(C(=O)COc1ncnc2ccccc12)C1CCCCC1	4.3	-20.9	-0.9%	3.9	-4.9	1.0
c1ccc2c(c1)Nc1cc3ccccc3cc1S2	-5.5	23.9	-0.6%	2.3	?	1.3
COc1ccc(-c2csc(NC(C)c3nc4cc(Cl)c(Cl)cc4n3CCOCCO)n2)cc1 (stereo not given)	12.6	0.9	2.7%	7.0	0.8	0.7
CN(C)C(=O)c1ccc(NC(=O)COC(=O)C2(c3ccccc3)CCCC2)cc1	·	-9.3	0.4%	7.8	2.6	0.9
CCOC(=O)c1sc(=S)n(C)c1NC(=O)c1ccccc1	3.9	-19.2	-4.0%	6.9	-4.4	-0.4
Cc1ccc(CSc2nc3ccccc3c(=O)n2Cc2ccco2)cc1	9.4	-6.7	1.8%	7.4	-3.9	0.6
CC(C)OP(=O)(OC(C)C)C(O)c1cccc([N+](=O)[O-])c1 (stereo not given)	3.5	-4.3	6.3%	-1.1	-0.1	-0.9
CCOC(=O)C1(C)CCCN(C(=O)c2snnc2C)C1 (stereo not given)	-1.9	-0.2	0.1%	-2.3	-2.6	-0.6
CC(C)c1ccc(NS(=O)(=O)c2ccc3c(c2)NC(=O)CO3)cc1	·	1.1	5.1%	2.2	6.4	-0.3
CC(=O)Nc1nc2ccc(C(=O)NC3CCCCC3)cc2s1	-4.6	-8.2	11.7%	-8.1	2.2	0.0
Cc1cnc(NC(=O)c2cccc(S(=O)(=O)N3CCOCC3)c2)s1	-3.8	-1.3	-0.3%	-1.5	-1.0	-0.3
CC(C)c1ccccc1NC(=O)CNCCOc1ccccc1F	8.1	-11.2	-2.5%	3.7	0.9	1.8
COc1ccc(S(=O)(=O)Nc2cc3c4c(c2)CCC(=O)N4CCC3)cc1	6.6	3.8	0.4%	3.9	1.7	-0.6
CCOC(=O)C1CCCN(C(=O)/C=C/c2ccccc2)CC1 (stereo not given)	6.3	-0.5	1.8%	-2.8	4.1	-0.6
Cc1ccccc1NC(=O)c1cc[n+]([O-])cc1	-0.2	-4.8	0.2%	8.9	-2.2	0.4
COCC(C)NC(=O)c1ccc(Cl)c(Cl)c1 (stereo not given)	2.5	-0.3	0.2%	10.5	-3.1	-0.5
C[C@@H]1CN([C@@H](C)CO)C(=O)CCCn2cc(nn2)CO[C@H]1CN(C)S(=O)(=O)c1ccc2ccccc2c1	-18.2	-2.0	0.6%	-8.2	-3.3	-0.1
CSc1cc(C)c(OCC(=O)Nc2ccc(NC(C)=O)cc2)c(C)c1	·	-2.3	5.5%	35.1	-3.3	0.3
c1ccc(OCCCn2ccnc2)cc1	6.3	-3.1	0.0%	2.4	-1.0	0.0
O=C(C1=NN[C@@H]2C(=O)N(Cc3ccccc3)C(=O)[C@H]12)c1ccc([N+](=O)[O-])cc1	3.5	5.5	-0.9%	-5.3	6.8	0.0
Cc1ccc(Nc2cc(C)nc(-c3ccccc3O)n2)cc1	2.2	9.6	8.0%	14.7	1.2	-0.8
C/C(=N\O)c1ccc(Cl)c(Cl)c1	17.8	-5.6	-0.8%	1.9	-1.6	0.6
COc1ccc(C)cc1NC(=O)C/C(C)=N/NC(=O)Cc1cccc2ccccc12	-2.6	-8.4	-0.2%	4.4	-5.4	0.0
CCCNC(=O)c1ccc2c(=O)n3c(-c4ccc(C)cc4)csc3nc2c1	-0.8	-80.8	2.8%	-0.1	-7.7	-0.5
Cc1cc(C(=O)NNC(=S)NCC(C)C)no1	4.5	-11.2	?	-2.4	3.1	-0.2
C1CSC2(N1)C1CC3CC2CC(C1)C31NCCS1 (stereo not given)	-7.5	-7.8	4.3%	-18.7	-5.9	-0.8

In the list so far, 2 have a nitro group on carbon.
SMILES	CtBP-E1A inh	D2 potentiator	PINK1 modulator	Six1-Eya2 inh	D2 agonist	TRPML1 agonist
CC(C)OP(=O)(OC(C)C)C(O)c1cccc([N+](=O)[O-])c1 (stereo not given)	3.5	-4.3	6.3%	-1.1	-0.1	-0.9
O=C(C1=NN[C@@H]2C(=O)N(Cc3ccccc3)C(=O)[C@H]12)c1ccc([N+](=O)[O-])cc1	3.5	5.5	-0.9%	-5.3	6.8	0.0

Back to the main list; the four compounds before the break are reprinted first.
SMILES	CtBP-E1A inh	D2 potentiator	PINK1 modulator	Six1-Eya2 inh	D2 agonist	TRPML1 agonist
COc1ccc(C)cc1NC(=O)C/C(C)=N/NC(=O)Cc1cccc2ccccc12	-2.6	-8.4	-0.2%	4.4	-5.4	0.0
CCCNC(=O)c1ccc2c(=O)n3c(-c4ccc(C)cc4)csc3nc2c1	-0.8	-80.8	2.8%	-0.1	-7.7	-0.5
Cc1cc(C(=O)NNC(=S)NCC(C)C)no1	4.5	-11.2	?	-2.4	3.1	-0.2
C1CSC2(N1)C1CC3CC2CC(C1)C31NCCS1 (stereo not given)	-7.5	-7.8	4.3%	-18.7	-5.9	-0.8
CC1CCCCN1CCCNC(=O)c1ccc(NC(=O)C2=CSCCO2)cc1 (stereo not given)	·	-12.5	0.2%	1.4	3.5	0.0
CC(C)c1ccc(/C=C/c2[nH]c(=O)[nH]c(=O)c2[N+](=O)[O-])cc1	·	?	-0.7%	-2.9	4.0	·
O=C(CCN1CCOCC1)Nc1ccc(F)cc1	4.2	0.1	-2.9%	5.3	3.0	3.6
Cc1cccc(N2CCN(C(=O)CCC(=O)N3CCOc4ccc(Cl)cc43)CC2C)c1 (stereo not given)	-13.7	-3.0	-0.1%	-13.0	1.7	0.9
COc1c2c(cc3oc(CO[C@@H]4O[C@H](CO)[C@@H](O)[C@H](O)[C@H]4O)cc(=O)c13)O[C@H](C(C)(C)O)C2	-11.7	1.2	-0.8%	15.4	1.6	0.0
CC(=O)c1ccc(NC(=O)CSc2nc(Nc3ccccc3)nc(N3CCOCC3)n2)cc1	0.0	-6.7	5.4%	-10.1	-2.4	1.1
COc1cccc(/C=C2/NC(=O)N(CC(=O)Nc3ccc(C)cc3)C2=O)c1OCc1cccc(C(=O)O)c1	1.4	-3.4	5.2%	-16.9	4.2	0.1
C=CCc1ccc(OCC(O)CN2CCN(c3ccccc3)CC2)c(OC)c1 (stereo not given)	·	20.3	0.6%	-19.3	?	1.8
COc1ccc(S(=O)(=O)NCCSC(C)(C)C)c(Cl)c1Cl	1.9	-8.1	7.3%[38.3 µM]	-0.8	-0.6	0.6
CSc1ccc(CNc2ncc(-c3cccc([N+](=O)[O-])c3)n2C)cc1	·	-65.2	2.2%	-17.3	-2.6	·

The final 4 records of the section before come first, to join the parts.
SMILES	CtBP-E1A inh	D2 potentiator	PINK1 modulator	Six1-Eya2 inh	D2 agonist	TRPML1 agonist
COc1cccc(/C=C2/NC(=O)N(CC(=O)Nc3ccc(C)cc3)C2=O)c1OCc1cccc(C(=O)O)c1	1.4	-3.4	5.2%	-16.9	4.2	0.1
C=CCc1ccc(OCC(O)CN2CCN(c3ccccc3)CC2)c(OC)c1 (stereo not given)	·	20.3	0.6%	-19.3	?	1.8
COc1ccc(S(=O)(=O)NCCSC(C)(C)C)c(Cl)c1Cl	1.9	-8.1	7.3%[38.3 µM]	-0.8	-0.6	0.6
CSc1ccc(CNc2ncc(-c3cccc([N+](=O)[O-])c3)n2C)cc1	·	-65.2	2.2%	-17.3	-2.6	·
Cc1ccc(C)c(C(=O)CN2C(=O)c3ccccc3C2=O)c1	5.9	-3.2	2.4%	9.1	4.0	1.5
O=C(OCCOc1ccc(Br)cc1)c1ccc(Cl)nc1	·	?	1.1%	24.6	-0.6	2.7
COc1ccccc1NC(=O)N(C)C[C@H]1OCc2cnnn2CCCC(=O)N([C@@H](C)CO)C[C@H]1C	-6.8	3.4	2.4%	8.4	-1.9	-0.4
COc1ccc(NC(=O)CC2Nc3cc(C)c(C)cc3NC2=O)c([N+](=O)[O-])c1 (stereo not given)	·	-0.9	-0.9%	-1.7	2.8	-1.1
O=C(NNC(=O)c1ccccc1O)c1ccc(Cl)c(S(=O)(=O)N2CCc3ccccc32)c1	-21.3	0.9	26.8%	?	-1.5	0.2
Cc1ccc(C(=O)O)cc1NS(=O)(=O)c1ccc2ccccc2c1	-1.6	2.1	0.4%	-0.4	-6.0	·
COC(=O)COc1c(/C=C\c2nc(O)c([N+](=O)[O-])c(=O)[nH]2)cccc1OC	·	-5.9	-0.8%	-1.5	-4.1	-0.3
COC(=O)C1CCN(CC(=O)Nc2sc3c(c2C#N)CCC3)CC1	-2.3	1.5	0.8%	-6.9	-4.1	0.1
Cc1nc2sc(C(c3ccco3)N3CCC4(CC3)OCCO4)c(O)n2n1 (stereo not given)	6.5	-12.6	1.2%[38.3 µM]	2.7	-1.3	0.5
